Assay outcomes as filed in PubChem.
RE007 growth inh: less growth of the S. pombe RE007 Vpr strain; S. pombe RE007 Vpr strain, BacTiter-Glo ATP luminescence, 24 h; control for the full effect not named in the record; Potency, µM (series often up to 92.2 µM), for the others: top-dose activity change, negative = less growth; actives 0.21% (n = 360,000); AID 651644; active = well fitted falling curve with a large enough effect; inconclusive = small, poorly fitted or top-dose-only effect; inactive = no such curve, though single readings can be large or run the other way;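 also: % is scaled to controls: 0 for no effect and ±100 for the full control effect; nearly all actives have a fitted effect of over 50% in size; the assay follows cell death caused by Vpr and the record does not say whether a fall means rescue or toxicity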
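Fission yeast strain RE007, carrying one chromosomally integrated HIV-1 vpr copy, was seeded at OD 0.01 in PMG+AL medium with 23 nL pinned compound. After 24 h at 30 °C and 99% humidity, viability was read by BacTiter-Glo luminescence.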
LASV entry inh: Lassa virus entry inhibition; Lassa virus pseudotype entry inhibition, cell reporter; control for the full effect not named in the record; Potency, µM (series often up to 37.9 µM), inactives show top-dose activity change, negative = inhibition, usual class: inhibitors; actives 1.2% (n = 300,000); AID 540256; active means well fitted inhibition curve with a large enough effect; inconclusive means small, poorly fitted or top-dose-only effect, or effect the other way; inactive means flat fitted curve, though single readings scatter; tested in HEK293 cells; also: % is scaled to controls: 0 for no effect and ±100 for the full control effect; nearly all actives have a fitted effect of over 50% in size; luciferase read-out
2A StopGo: lowers the luciferase signal of an FMDV 2A StopGo reporter. human cells with a luciferase reporter of 2A StopGo recoding; control for the full effect not named in the record. AID 1159524. actives 1.2% (n = 410,000). Potency, µM (doses to about 57.9 µM), inactives show at the highest dose signal change, negative = less light; active = well fitted falling curve with a large enough effect; inconclusive = small, poorly fitted or top-dose-only effect; inactive = no such curve, though single readings can be large or run the other way; tested in HEK293T cells; also: % is scaled to controls: 0 for no effect and ±100 for the full control effect; nearly all actives have a fitted effect of over 45% in size; luciferase light after 4 h
Cruzain inh Det: inhibitors of Trypanosoma cruzi cruzain with detergent | P25779 | purified cruzain, Z-FR-AMC fluorescence, 0.01% Triton | Potency, µM, without a hit: max response, negative = inhibition, hits mostly inhibitors | actives 0.43% (n = 200,000) | AID 1478;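 also: plate controls were neutral wells for no effect and buffer without enzyme for full effect; nearly all actives have a fitted effect of over 40% in size; top concentration of the series not given in the record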
Target sequence (P25779 123-467 limits assumed): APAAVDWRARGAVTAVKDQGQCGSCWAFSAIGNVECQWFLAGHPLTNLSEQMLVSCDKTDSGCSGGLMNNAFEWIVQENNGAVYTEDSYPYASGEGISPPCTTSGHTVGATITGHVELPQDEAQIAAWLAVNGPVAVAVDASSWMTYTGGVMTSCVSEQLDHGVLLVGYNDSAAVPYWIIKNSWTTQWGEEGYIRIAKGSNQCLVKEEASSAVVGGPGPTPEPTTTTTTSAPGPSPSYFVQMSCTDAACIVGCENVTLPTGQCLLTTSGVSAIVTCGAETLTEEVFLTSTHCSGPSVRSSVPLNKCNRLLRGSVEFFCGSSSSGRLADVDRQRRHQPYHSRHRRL
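Detergent-containing arm of a paired screen for aggregation-based inhibition: 0.01% Triton X-100 present. Cruzain at 1.5 nM cleaved 2 uM Z-FR-AMC at pH 5.5 with 5 mM DTT; AMC fluorescence gain over 60 s measured activity.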
Marburg entry inh: Marburg virus entry inhibition | Marburg virus pseudotyped entry inhibition, cell reporter; control for the full effect not named in the record; about a third of the inactives were read at about 46 µM | Potency, µM (series often up to 37.8 µM), inactives show at the top dose activity change, negative = inhibition, usual class: inhibitors | actives 1.8% (n = 300,000); active = well fitted inhibition curve with a large enough effect; inconclusive = small, poorly fitted or top-dose-only effect, or effect the other way; inactive = flat fitted curve, though single readings scatter; tested in HEK293 cells; about a fifth of its hits are not listed in these tables; also: % is scaled to controls: 0 for no effect and ±100 for the full control effect; luciferase read-out
Cruzain inh noDet: cruzain (T. cruzi) inhibition without detergent; P25779; purified cruzain, Z-FR-AMC fluorescence, no detergent; Potency, µM, inactives show max response, negative = inhibition, actives largely listed as inhibitors; actives 2.3% (n = 200,000);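 also: plate controls were enzyme without inhibitor for no effect and buffer without enzyme for full effect; nearly all actives have a fitted effect of over 40% in size; top concentration of the series not given in the record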
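Detergent-free condition (0.00005% Triton X-100) in acetate buffer pH 5.5 with DTT. 1.5 nM enzyme and compound were pre-mixed 15 min, then 2 uM Z-FR-AMC substrate added; reaction progress from fluorescence change between first and third reads (60 s).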
NS1 function inh: blocks influenza NS1 protein function; actives 0.4% (n = 270,000); S. cerevisiae slowed by influenza A NS1, growth recovery by OD600; AID 2326; Potency, µM (highest dose often 46.1 µM), for the others: at the top dose activity, positive = more growth; active means well fitted rising curve with a large enough effect; inconclusive means small, poorly fitted or top-dose-only effect; inactive means no such curve, though single readings can be large or run the other way; also: nearly all actives have a fitted effect of over 50% in size
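OD600 was taken as the measure of yeast growth restored by compound in an NS1-expressing S. cerevisiae strain. Cells had been washed out of glucose medium and diluted 1:100 into galactose -URA medium, pH 6.0.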
SARS PLP yeast: blocks SARS-CoV papain-like protease in a yeast assay; S. cerevisiae expressing SARS-CoV PLpro, growth rescue; control for the full effect not named in the record; Potency, µM (series often up to 32.9 µM), without a hit: at the top dose activity, positive = growth rescue; actives 0.19% (n = 330,000); active means well fitted rising curve with a large enough effect; inconclusive means small, poorly fitted or top-dose-only effect; inactive means no such curve, though single readings can be large or run the other way; also: 0% is about no effect; nearly all actives have a fitted effect of over 55% in size; growth read by luminescence after 48 h
* marks the source's active call; other numbers are inactive results; ? = inconclusive; . = not tested or not shown; & = joins results of further samples; [ ] = remark or other dose. Unless noted, calls follow the shape of the dose curve; as a rule, active = well fitted curve in the direction sought with a large enough effect; inconclusive = small, poorly fitted or top-dose-only effect, or another doubt; inactive = no such curve, though single readings can be large; an effect the other way counts as inactive or inconclusive. Potency is read from the fitted curve at half-maximal effect.

SMILES | RE007 growth inh | LASV entry inh | 2A StopGo | Cruzain inh Det | Marburg entry inh | Cruzain inh noDet | NS1 function inh | SARS PLP yeast
COc1ccc(CNC(=O)CSc2nc3ccsc3c(=O)n2Cc2ccccc2Cl)cc1 | . | 7%[46.1 µM] | 4% | -3.0% | -7%[46.1 µM] | 3% | . | .
Cc1cccc(NC(=O)C2CCN(S(=O)(=O)c3cccc4cccnc34)CC2)n1 | 8% | . | ? | 4.5% | 4% | -12% | -14% | 10%
COC(=O)c1sccc1NC(=O)CSCC(=O)O | -24% | -17%[46.1 µM] | 76%[activator] | . | 0%[46.1 µM] | . | . | 1%
CC(C)(C)c1nc(Sc2ncccc2[N+](=O)[O-])n[nH]1 | 0% | 10%[46.1 µM] | -2% | . | -5%[46.1 µM] | . | 2% | 1%
CCOC(=O)c1ccc(OC(=O)c2cn(-c3cccc(OC)c3)c(=O)c3ccccc23)cc1 | . | ? | -21% | -2.4% | . | -15% | . | .
CC1CC(C)CN(CCCNC(=O)c2ccc3c(c2)NC(=O)CS3)C1 (stereo not given) | -1% | . | -9% | . | . | . | -14% | 25%
COc1ccccc1CC(=O)Nc1nc(-c2ccc(F)c(F)c2)cs1 | 0% | ? | -28% | . | ? | . | -49% | 1%
Cc1ccccc1Nc1nnc(-c2ccc(C)c(S(=O)(=O)N3CCCCC3)c2)c2ccccc12 | . | ? | 0% | -5.6% | . | ? | . | .
COc1ccc(C=C(C#N)C#N)c(CSc2ccccn2)c1 | -4% | . | -20% | . | . | . | -3% | -1%
COc1ccc(/C(C)=N/NC(=O)C2C3CCCCC32)c(OC)c1 (stereo not given) | -6% | -25% | -6% | -1.7% | 11% | -5% | 13% | 4%
COc1cc(NC(=O)c2cccc(Cl)c2)ccc1NC(=O)c1cccs1 | -7% | -22% | 2% | . | 10%[46.1 µM] | . | 3% | -1%
CNc1nc(C)c(C(=O)c2ccc(Cl)cc2)s1 | -3% | 2% | 28% | 2.0% | ? | -8% | -11% | -10%

Random excerpt: seven compounds from above.
SMILES | RE007 growth inh | LASV entry inh | 2A StopGo | Cruzain inh Det | Marburg entry inh | Cruzain inh noDet | NS1 function inh | SARS PLP yeast
COc1ccc(CNC(=O)CSc2nc3ccsc3c(=O)n2Cc2ccccc2Cl)cc1 | . | 7%[46.1 µM] | 4% | -3.0% | -7%[46.1 µM] | 3% | . | .
COc1ccccc1CC(=O)Nc1nc(-c2ccc(F)c(F)c2)cs1 | 0% | ? | -28% | . | ? | . | -49% | 1%
CC(C)(C)c1nc(Sc2ncccc2[N+](=O)[O-])n[nH]1 | 0% | 10%[46.1 µM] | -2% | . | -5%[46.1 µM] | . | 2% | 1%
COc1ccc(/C(C)=N/NC(=O)C2C3CCCCC32)c(OC)c1 (stereo not given) | -6% | -25% | -6% | -1.7% | 11% | -5% | 13% | 4%
COc1ccc(C=C(C#N)C#N)c(CSc2ccccn2)c1 | -4% | . | -20% | . | . | . | -3% | -1%
CCOC(=O)c1ccc(OC(=O)c2cn(-c3cccc(OC)c3)c(=O)c3ccccc23)cc1 | . | ? | -21% | -2.4% | . | -15% | . | .
CC1CC(C)CN(CCCNC(=O)c2ccc3c(c2)NC(=O)CS3)C1 (stereo not given) | -1% | . | -9% | . | . | . | -14% | 25%

Remaining list, next part.
SMILES | RE007 growth inh | LASV entry inh | 2A StopGo | Cruzain inh Det | Marburg entry inh | Cruzain inh noDet | NS1 function inh | SARS PLP yeast
O=C(O)CCCCCNc1ccc2nsnc2c1[N+](=O)[O-] | 3% | -4% | -10% | -12% | 6% | -9% | 1% | 13%
CCOC(=O)COc1ccc2c(c1)C(=O)CC(C)(c1cccnc1)O2 (stereo not given) | 3% | 2% | -8% | 4.8% | 9% | 3% | -96% | 2%
Cc1ccc(S(=O)(=O)N(Cc2ccc(Cl)cc2)c2ccccc2C(=O)NCc2cccnc2)cc1 | -2% | ? | 0% | -5.0% | ? | ? | -43% | -9%
Cc1ccc(S/C(=N\S(=O)(=O)c2ccc(Cl)cc2)c2ccccc2)cc1 | 15% | ? | -2% | 2.6% | ? | -1% | -2% | 7%
CN(CCC#N)CC(=O)Nc1ccc(S(N)(=O)=O)cc1 | 17% | 9% | -5% | . | 0%[46.1 µM] | . | 0% | 1%
CC1Oc2ccccc2N(CC(=O)N(Cc2ccccc2)Cc2ccccn2)C1=O (stereo not given) | -2% | -25% | -27% | 7.6% | ? | 12% | -5% | -1%
Cc1cc(C)c(S(=O)(=O)Nc2cccc(C(=O)O)c2)cc1S(=O)(=O)Nc1cccc(C(=O)O)c1 | 0% | 29% | -7% | . | -2% | . | . | .
O=C(NC(=S)Nc1ccc2c(c1)C(=O)c1ccccc1C2=O)c1ccc(F)cc1 | . | ? | . | 0.4% | 5% | 4µM* | 9% | -20%
CN(C[C@H](CC1CCCCC1)N(C[C@H](Cc1ccccc1)N(CCc1ccccc1)N=O)N=O)N=O | -9% | . | 10% | . | . | . | 11% | 0%
O=C(CSCCO)Nc1ccc([N+](=O)[O-])cc1 | 7% | -1% | 12% | . | ? | . | 2% | 0%
c1ccc2c(c1)OCC(c1nnc3sc(-c4cnccn4)nn13)O2 (stereo not given) | 15% | 4% | -3% | -7.9% | -2% | -30% | -111% | -11%
O=C(N/N=C/c1ccc(Br)cc1)c1ccc(Br)o1 | 25% | ? | 22% | ? | ? | -7% | 2% | -20%
CC(CCc1ccccc1)NC(=O)COC(=O)c1ccccc1Br (stereo not given) | -6% | . | -11% | . | . | . | -40% | 0%
CCOc1ccccc1Cn1c(=O)sc2ccccc21 | -2% | 8% | -14% | . | -28%[46.1 µM] | . | 2% | -2%
CCOc1cc(C(=O)NN2CCOCC2)cc(OCC)c1OCC | 1% | . | -13% | . | . | . | 10% | 7%
O=C(O)CC(NC(=O)C12CC3CC(CC(C3)C1)C2)c1ccc(Cl)cc1 (stereo not given) | 3% | . | -12% | . | . | . | 1% | 1%
CCOC(=O)NC(=O)/C(N=Nc1ccc(C(F)(F)F)cc1)=C(\C)O | -16% | 20%[46.1 µM] | -16% | . | 0%[46.1 µM] | . | 2% | 0%
COc1cc(CNC2CCCCC2)c(Br)cc1OC1CCCC1 | 8% | . | -27% | . | . | . | -4% | 0%
COc1ccc(Cc2nc(-c3ccncc3)no2)cc1 | -5% | . | 18% | . | . | . | -2% | 1%
Cc1cccc(-n2c(C)cc(/C=C3\C(=N)N4N=C(CC(C)C)SC4=NC3=O)c2C)c1 | 1% | -3% | -7% | -3.2% | -7% | ? | 2% | -7%
O=C(Nc1ccc(F)cc1F)NC1CCN(S(=O)(=O)c2ccc(F)cc2)CC1 | 1% | 0%[46.1 µM] | -20% | . | -23%[46.1 µM] | . | . | -1%
Cc1ccc(CNC(=O)CSc2nc3n[nH]c(C)c3c(=N)n2-c2ccccc2Cl)cc1 | . | 5%[46.1 µM] | -3% | -1.5% | . | -8% | . | .
CCS(=O)(=O)c1ccccc1C(=O)NC1CCCc2ccccc21 (stereo not given) | -4% | 0%[46.1 µM] | 0% | . | -29%[46.1 µM] | . | -1% | 0%
CCCn1c(SCC(=O)Nc2ccc3c(c2)CCC3)n[nH]c1=O | 11% | 5% | -21% | -1.0% | 2% | -3% | -10% | 15%
Cc1cc(OC(=O)c2ccccc2[N+](=O)[O-])c([N+](=O)[O-])c(=O)[nH]1 | -2% | . | -4% | . | . | . | -26% | 2%
CCOC(=O)C(NC(C)=O)(Nc1ccc(F)cc1)C(F)(F)F (stereo not given) | 5% | -1% | -23% | 9.2% | 6% | 11% | 4% | -23%
CC1CCCCN1CCNC(=O)C1CCN(S(=O)(=O)c2cccc3nsnc23)CC1 (stereo not given) | -14% | . | -4% | . | . | . | 8% | 4%
CCOC(=O)N1CCN(C(=O)C(C)n2nc(C)n3c(cc4sccc43)c2=O)CC1 (stereo not given) | -3% | -6% | . | 2.2% | -36% | -4% | ? | -1%
Cc1ccc(Cl)cc1N1CCN(C(=O)Cn2cnc3nc4c(cc3c2=O)CCCC4)CC1 | . | -17%[46.1 µM] | ? | -1.2% | . | 0% | . | .
CCOc1cc(C(=O)NCCOC)ccc1OC | 10% | 0% | -18% | 2.3% | 0%[46.1 µM] | -5% | 0% | -1%
CSc1ccc(CNC(=O)Cn2ccc3cc(S(=O)(=O)N4CCCC4)ccc32)cc1 | . | 11%[46.1 µM] | -22% | -5.6% | . | -11% | . | .
CCOc1ccccc1C(=O)Nc1nnc(COC)s1 | -9% | 21%[46.1 µM] | 19%&28% | -2.6%&-6.1% | -13%&-13% | -7%&8% | 16% | 14%
CC(=O)NC(CC(=O)N(C)Cc1cccc(Cl)c1Cl)c1ccccc1 (stereo not given) | -4% | 16% | 4% | . | 4% | . | . | -3%
O=C(Nc1cccc(S(=O)(=O)N2CCCCCC2)c1)C1CC(=O)N(c2ccc3c(c2)OCCO3)C1 (stereo not given) | 10% | -21%[46.1 µM] | -7% | . | -5% | . | . | 2%
Cc1cccc(-c2nnc(-c3cccc(NC(=O)Cc4cccs4)c3)o2)c1 | 2% | -12% | 18% | -6.3% | -2% | 5% | -30% | -4%
O=C(O)CC1Oc2ccc(Cl)cc2NC1=O (stereo not given) | 6% | . | 2% | -1.4% | -2% | -5% | -3% | 0%
CCc1ccccc1NC(=O)COc1cccc2ccc(C)nc12 | ? | 0% | ? | -3.1% | ? | 18% | -16% | 1%
COC(=O)CCCC(=O)N1CCCC(C(=O)c2ccc(OC)cc2C)C1 (stereo not given) | 23% | . | -14% | . | . | . | ? | 0%
CCc1cc(C(=O)NNC(=O)CCN2CCN(c3ccccc3)CC2)sc1C | 0% | . | -8% | . | . | . | 5% | 26%
O=C(Nc1cc(F)ccc1F)C1CCCO1 (stereo not given) | -4% | -4% | 1% | 5.5% | 3% | -14% | 4% | -3%
Cc1ccccc1-c1nc(P(=O)(c2ccccc2)c2ccccc2)c(N2CCOCC2)o1 | 33% | . | -23% | . | . | . | 5% | 0%
